Bead autofluor – counter-screen for toxin protease inhibitors: compound fluorescence. compound autofluorescence counterscreen, microsphere flow cytometry; stronger effect = higher value. fluorescence intensity (no concentration beside the values). 3.1% of 360,000 active. AID 624483;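 active = at least 3 SD above the mean of all compounds, about 16000 in these data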;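 note: 100 nL of 1 mM stock went into each well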
Mtb hypoxia rep – reduces hypoxia-regulated biosensor signal in M. tuberculosis; M. tuberculosis hypoxia-regulated fluorescent reporter, fluorescence; fluorescence inhibition, % (test concentration not listed); 0.1% of 300,000 active; AID 1159583;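 active = 35 to 45% if threefold the growth effect, above 45% if 1.5-fold the growth effect; inactive = the rest, general growth blockers included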;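 note: wells of about 50 µL received 100 nL stock; 0% = vehicle wells and 100% = reference inhibitor wells; whole bacteria with a GFP reporter of the hypoxia response; strong numbers were not always called active; many hits fall short of the cut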
PrP 5UTR inh – suppresses PrP 5' UTR mRNA reporter expression; inhibition, % (test concentration not listed); cell-based PrP 5' UTR mRNA reporter, plate reader; 0.35% of 340,000 active;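 active = every replicate at 50% or more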;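 note: 0 = median of the neutral control wells; tested in H4 reporter cells; numbers are from one replicate; inactives centre near -14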
Sa ugtP lethal – growth inhibition of S. aureus ugtP deletion strain | S. aureus RN4220 ugtP deletion, OD600 growth, 16 h; some inactives read as strong as hits | growth inhibition, % (concentration not given with the values) | 0.54% of 330,000 active | AID 1259309;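 active = z-score under -3 and OD600 up to 0.15 on both plates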;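 note: plate controls were untreated wells for no effect and antibiotic for full effect; wells of about 80 µL received 100 nL stock; the first replicate is given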
Sa RN4220 lethal – kills Staphylococcus aureus RN4220; S. aureus RN4220 growth, OD600, 16 h; inhibition, % (test concentration not listed); 0.33% of 330,000 active; AID 1259311;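 active = z-score of -3 or lower and OD600 up to 0.18 on both plates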;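 note: plate controls were untreated cells for no effect and reference antibiotic for full effect; stock transfer was 100 nL into about 80 µL; one replicate is shown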
BJeLR lethal – kills HRASV12-expressing BJeLR cells; AID 1554; BJeLR (HRASV12) viability, CellTiter-Glo ATP luminescence, 48 h; reference of the scale not given here; inhibition, % (no concentration beside the values); 0.17% of 300,000 active;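 active = replicate mean above 50%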;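 note: 50 nL library stock added to about 25 µL; numbers are from one replicate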
Mtb hypoxia rep growth – recorded beside Mtb hypoxia rep, whose call it bears; growth inhibition, %; measured here: M. tuberculosis growth (absorbance);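 0% = vehicle and 100% = reference antibiotic; read after six days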
Starred values were filed as active, the others as inactive; . = no result given. Hits appear at their usual frequency; overall some 4% were active at least once.

#1 C[C@H](NC(=O)c1ccco1)C(=O)Nc1ccc(S(=O)(=O)N2CCCC2)cc1
#2 CN1CCN(S(=O)(=O)c2ccc(NC(=O)C3CCCCC3)cc2)CC1
#3 Cc1cccc(-c2cc(C(=O)NN=Cc3cccnc3)c3ccccc3n2)c1
#4 O=C(Cc1sc(-c2ccccc2Cl)nc1-c1ccccc1)Nc1ccccc1
#5 Cc1ccc(S(=O)(=O)Cn2nnnc2CN2CCOCC2)cc1
#6 N#C/C(=C\c1ccc(Sc2ccc(Cl)cc2)o1)c1nc2ccccc2[nH]1
#7 COC(=O)CCC(=O)NC1CC(C)(C)Cc2c1cnn2-c1ccccc1 (configuration not stated)
#8 O=C(Cc1ccccc1)NN1C(=O)C2C3C=CC(C3)C2C1=O (configuration not stated)

assay / entry,1,2,3,4,5,6,7,8
BJeLR lethal,-9,1,.,-16,-10,.,2,-6
PrP 5UTR inh,-10,-13,.,-21,-21,-22,-32,-10
Mtb hypoxia rep growth,.,5,5,4,6,1,2,7
Mtb hypoxia rep,.,8,4,7,14,10,1,1
Bead autofluor,2306,2514,.,3172,11097,2469,3305,2933
Sa ugtP lethal,7,5,9,-1,8,-12,5,-1
Sa RN4220 lethal,0.1,-11,-5.2,4.1,4.0,1.2,-1.4,1.7

Another view of two compounds above:
Values run as follows: BJeLR lethal	PrP 5UTR inh	Mtb hypoxia rep growth	Mtb hypoxia rep	Bead autofluor	Sa ugtP lethal	Sa RN4220 lethal
6: N#C/C(=C\c1ccc(Sc2ccc(Cl)cc2)o1)c1nc2ccccc2[nH]1
    .	-22	1	10	2469	-12	1.2
1: C[C@H](NC(=O)c1ccco1)C(=O)Nc1ccc(S(=O)(=O)N2CCCC2)cc1
    -9	-10	.	.	2306	7	0.1

Of the compounds above, these have four or more nitrogen atoms:
#3 Cc1cccc(-c2cc(C(=O)NN=Cc3cccnc3)c3ccccc3n2)c1
#5 Cc1ccc(S(=O)(=O)Cn2nnnc2CN2CCOCC2)cc1

assay / entry,3,5
BJeLR lethal,.,-10
PrP 5UTR inh,.,-21
Mtb hypoxia rep growth,5,6
Mtb hypoxia rep,4,14
Bead autofluor,.,11097
Sa ugtP lethal,9,8
Sa RN4220 lethal,-5.2,4.0

More structures:
#9 O=C(O)c1ccc2c(c1)ncn2C1CCCCC1
#10 Cc1ccc2c(c1)C=CC(C#N)N2C(=O)c1ccccc1 (configuration not stated)
#11 O=C(CSc1nnc(NC(=O)c2cccc(Cl)c2)s1)NCC1CCCO1 (configuration not stated)
#12 COc1ccc(Nc2nc(Cl)c(C=O)s2)cc1
#13 CCOC(=O)C1CCCN(S(=O)(=O)c2cn(C)c(=O)n(C)c2=O)C1 (configuration not stated)
#14 Cc1c(=O)n(OCc2ccccc2F)c2ccccc2[n+]1[O-]
#15 Cc1ccc(OCCNS(=O)(=O)c2ccc(N3CCCC3=O)cc2)cc1C
#16 O=S(=O)(c1cccc2nonc12)N1CCN(c2cccc(Cl)c2)CC1

assay / entry,9,10,11,12,13,14,15,16
BJeLR lethal,3,34,0,0,5,-3,0,-1
PrP 5UTR inh,-7,6,-6,7,-14,5,3,-17
Mtb hypoxia rep growth,16,-7,7,.,4,.,3,.
Mtb hypoxia rep,10,-2,5,.,1,.,11,.
Bead autofluor,5051,2321,5940,8262,5938,4755,5488,2974
Sa ugtP lethal,2,10,-4,.,7,0,12,0
Sa RN4220 lethal,2.8,9.0,-2.3,.,-9.1,3.1,6.9,-2.4

Some of the entries above in a different format:
Fields – BJeLR lethal | PrP 5UTR inh | Mtb hypoxia rep growth | Mtb hypoxia rep | Bead autofluor | Sa ugtP lethal | Sa RN4220 lethal
(9) O=C(O)c1ccc2c(c1)ncn2C1CCCCC1
    3 | -7 | 16 | 10 | 5051 | 2 | 2.8
(16) O=S(=O)(c1cccc2nonc12)N1CCN(c2cccc(Cl)c2)CC1
    -1 | -17 | . | . | 2974 | 0 | -2.4

Remaining list, next part
#17 CC(C)CN(C(=O)COC(=O)CNC(=O)c1ccccc1F)c1c(N)n(Cc2ccccc2)c(=O)[nH]c1=O
#18 Nc1c(C(=O)OCC(=O)Nc2ccc(OC(F)F)cc2)[nH]c(=O)[nH]c1=O
#19 Cc1cc(/C=N/Nc2ccc([N+](=O)[O-])cn2)c(C)n1-c1ccccc1
#20 O=[N+]([O-])c1ccc(NCCNc2ccc([N+](=O)[O-])cc2)cc1
#21 Cn1c(CN2CCOCC2)nnc1SCC(=O)Nc1cccc(C(F)(F)F)c1
#22 CCC(C)[C@H]1CN=C(N)N1CCc1cccc(F)c1 (some centres not stated)
#23 CCCOP(=O)(OCCC)C(Nc1ccc(C(C)C)cc1)c1ccc([N+](=O)[O-])cc1 (configuration not stated)
#24 Cc1ccc(/C=C(\C#N)C(=O)NC(C)C)o1

assay / entry,17,18,19,20,21,22,23,24
BJeLR lethal,-7,.,-3,.,-5,1,-1,-17
PrP 5UTR inh,-33,-16,-90,-13,-27,-15,-12,-18
Mtb hypoxia rep growth,.,5,.,2,2,.,7,0
Mtb hypoxia rep,.,4,.,10,11,.,6,-5
Bead autofluor,4831,3381,3480,3973,3660,4269,15566,3397
Sa ugtP lethal,.,4,.,-4,-1,.,-8,-15
Sa RN4220 lethal,.,2.2,.,0.4,1.7,.,4.1,-0.2

#25 O=C(c1ccccc1)N1CCSC1=S
#26 N/C(=N\OC(=O)C1CCCCC1)c1cccnc1
#27 COc1cc2c(C(=O)NCCN(C)C)cn(CC(C)C)c(=O)c2cc1OC
#28 Cn1nc(C(=O)N2CCN(S(=O)(=O)/C=C/c3ccccc3)CC2)c2ccccc2c1=O
#29 Cc1ccc(N(CC(=O)NCc2ccc3c(c2)OCO3)S(C)(=O)=O)cc1
#30 Cc1ccc(C(=O)Nc2cccc(C(=O)NCc3ccccc3)c2)cc1
#31 COCCn1c(SCC(=O)Nc2nc(C)c(Cl)cc2Cl)nc2ccccc21
#32 CCOC(=O)c1ccc(S(=O)(=O)N2CCC(C(=O)O)CC2)cc1

assay / entry,25,26,27,28,29,30,31,32
BJeLR lethal,-3,-15,2,-3,-2,-8,2,2
PrP 5UTR inh,4,-7,-3,-7,-17,1,-33,-13
Mtb hypoxia rep growth,1,1,9,5,5,8,.,9
Mtb hypoxia rep,4,0,16,10,-5,8,.,9
Bead autofluor,7950,16025,3545,2007,3559,7434,2849,10697
Sa ugtP lethal,3,0,10,5,-1,-6,1,0
Sa RN4220 lethal,4.2,0.6,4.3,4.2,-4.2,5.1,3.9,1.0

The final two records of the section before open the next one:
#31 COCCn1c(SCC(=O)Nc2nc(C)c(Cl)cc2Cl)nc2ccccc21
#32 CCOC(=O)c1ccc(S(=O)(=O)N2CCC(C(=O)O)CC2)cc1
#33 COc1ccc(-c2csc(NC(=O)C3CC(=O)N(Cc4ccccc4)C3)n2)cc1OC (configuration not stated)
#34 COc1ccccc1Nc1ccc(NS(=O)(=O)c2ccc(C(C)=O)cc2)cc1
#35 c1ccc(CCNc2ncnc3nc[nH]c23)cc1
#36 ClCc1csc(-c2ccccc2Cl)n1

assay / entry,31,32,33,34,35,36
BJeLR lethal,2,2,11,2,-2,0
PrP 5UTR inh,-33,-13,-6,-13,-31,4
Mtb hypoxia rep growth,.,9,-7,5,.,0
Mtb hypoxia rep,.,9,-8,3,.,5
Bead autofluor,2849,10697,5250,3036,5326,2067
Sa ugtP lethal,1,0,-11,6,-15,5
Sa RN4220 lethal,3.9,1.0,-3.4,8.4,4.2,8.8
